Vaccinia inh – blocks a specific stage of Vaccinia orthopoxvirus infection. Vaccinia-infected cells, mCherry/Venus stage reporter fluorescence; active compounds read low; some inactives read as strong as hits. activity change (mCherry), % (test concentration not listed). 0.01% of 89,000 active;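 active = mCherry past -33% and 40 or more points under the early reporter, replicates agreeing; inconclusive = past -33% without that gap or agreement; tested in A549 cells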;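 also: scaled between vehicle wells and reference inhibitor wells; 23 nL library stock went into each well; one replicate is shown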
Vaccinia inh Venus – second read-out of Vaccinia inh, no call of its own (marks repeat the call); activity change (Venus), %; measured here: Venus reporter, other viral stage;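 negative = less Venus signal; first of two replicates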
The depositor's hits bear a star; ? = inconclusive; / = no result given; & = joins results of further samples. These rows are one share of the data; count on the stated rates, not on these rows.

nr	Structure	Vaccinia inh Venus	Vaccinia inh
1	CNC[C@H]1Oc2ccc(NC(=O)CCCN(C)C)cc2C(=O)N([C@H](C)CO)C[C@H]1C	10.7	7.8
2	C/C=C/c1ccc2c(c1)O[C@@H](CN(C)C(=O)c1ccncc1)[C@H](C)CN([C@H](C)CO)S2(=O)=O	-1.2	-0.2
3	CO[C@H]1CN(C)C(=O)c2ccc(NC(=O)C3CC3)cc2OC[C@@H](C)N(C(=O)Cc2ccccn2)C[C@H]1C	13.4	12.3
4	COc1ccc(C(=O)N2C[C@H]3[C@@H](c4ccccc42)[C@@H](CO)N3C(=O)NC(C)C)cc1	-3.6	-1.5
5	C[C@H](CO)N1C[C@H](C)[C@H](CN(C)S(=O)(=O)c2ccc(Cl)cc2)Oc2ccc(NS(C)(=O)=O)cc2CC1=O	7.3	3.1
6	C[C@@H]1CCCCO[C@H](CN(C)C(=O)CCCN(C)C)[C@H](C)CN([C@@H](C)CO)C(=O)c2cc(NC(=O)Nc3ccccc3)ccc2O1	13.2	13.1
7	CCC(=O)Nc1ccc2c(c1)C(=O)N(C)C[C@@H](OC)[C@H](C)CN(Cc1ccccn1)[C@@H](C)CO2	3.2	6.4
8	CCC(=O)N[C@H]1CC[C@@H](CC(=O)NCc2cc(F)cc(F)c2)O[C@H]1CO	6.4	-0.2
9	CCCC#Cc1ccc([C@H]2[C@@H](CO)N3CCCCN(CC4CC4)C[C@H]23)cc1	-11.0	-11.0
10	C[C@H](CO)N1C[C@H](C)[C@H](CN(C)CC2CC2)OCc2ccccc2-c2ccccc2C1=O	-2.6	17.9
11	C[C@H]1CN([C@@H](C)CO)C(=O)Cc2cc(NS(C)(=O)=O)ccc2O[C@@H]1CN(C)C	6.7	11.0
12	C[C@@H]1CN([C@@H](C)CO)C(=O)c2cccc(NC(=O)c3ccc(-c4nccs4)cc3)c2O[C@H]1CN(C)C(=O)Nc1ccccc1	1.5	9.9
13	COCC(=O)N(C)C[C@H]1Oc2cc(C#CCC3CCCC3)ccc2S(=O)(=O)N([C@@H](C)CO)C[C@H]1C	/	?
14	C[C@@H]1CN([C@@H](C)CO)C(=O)Cc2cc(NC(=O)Nc3ccc(C(F)(F)F)cc3)ccc2O[C@@H]1CN(C)Cc1ccncc1	/	?
15	CN1c2ccc(-c3cccc(C#N)c3)cc2[C@@H]2[C@@H](CCN2C(=O)CN2CCOCC2)[C@H]1CO	3.9	-1.2
16	O=C1CN(Cc2ccccc2)C[C@H]2[C@@H](c3ccc(-c4cccnc4)cc3)[C@H](CO)N12	-0.2	10.0
17	COc1ccc(NC(=O)Nc2ccc3c(c2)C(=O)N([C@H](C)CO)C[C@H](C)[C@H](CN(C)C(=O)Nc2ccccc2)OCCCC[C@@H](C)O3)cc1	7.6	15.1
18	Cc1ccc(S(=O)(=O)Nc2ccc3c(c2)C(=O)N([C@H](C)CO)C[C@@H](C)[C@H](CN(C)CC2CC2)OCCCC[C@@H](C)O3)cc1	-1.8	0.8
19	C[C@H]1CN([C@@H](C)CO)C(=O)c2cc(NS(=O)(=O)c3cccs3)ccc2O[C@H]1CN(C)S(=O)(=O)c1ccccc1	6.9	4.3
20	COc1ccc2c3c(n(C)c2c1)[C@@H](CO)N(C(=O)CN1CCOCC1)CC31CN(C(=O)Nc2cccc(F)c2)C1	0.4	7.0
21	O=C(c1ccccc1F)N1C[C@H]2[C@@H](c3ccccc31)[C@@H](CO)N2C(=O)c1ccc(F)cc1	-6.7	6.3
22	C[C@H](CO)N1C[C@H](C)[C@H](CN(C)C(=O)c2ccncc2)Oc2cc(C#Cc3ccncc3)ccc2S1(=O)=O	12.0	9.1
23	CC1=CC2(CO)C(=O)[C@]3(CO3)[C@H]1[C@H]1[C@]2(C)C=C(CO)C(=O)[C@]12CO2	5.0	-9.6
24	COc1cccc(S(=O)(=O)N2CCCCN3[C@H](C2)[C@@H](c2ccc(C4=CCCCC4)cc2)[C@@H]3CO)c1	-20.6	-6.8
25	C[C@@H]1CN([C@H](C)CO)S(=O)(=O)c2ccc(C#Cc3ccccn3)cc2O[C@H]1CN(C)C(=O)C1CC1	3.0	-1.2
26	COc1ccccc1-c1ccc([C@H]2[C@@H](CO)N(C(C)=O)[C@H]2CN(C)C(C)=O)cc1	5.8	-0.6
27	COc1ccc(NC(=O)N(C)C[C@H]2Oc3c(NC(=O)NC4CCCCC4)cccc3C(=O)N([C@@H](C)CO)C[C@@H]2C)cc1	7.9	7.5
28	Cc1noc(C)c1NC(=O)N(C)C[C@H]1Oc2ccc(NC(=O)Nc3ccc4c(c3)OCO4)cc2CC(=O)N([C@@H](C)CO)C[C@H]1C	8.8	11.4
29	O=C(NCc1ccccc1F)[C@@H]1[C@@H](CO)[C@@H]2Cn3c(cccc3=O)[C@@H]2N1CC1CC1	6.2	18.6
30	COc1ccccc1CNC(=O)C[C@@H]1C[C@H]2c3cc(NC(=O)C4CCOCC4)ccc3O[C@H]2[C@@H](CO)O1	-7.6	-9.9
31	CN1C[C@@H](O)COC[C@@H]2O[C@H](CC(=O)N3CCN(c4ccccc4)CC3)CC[C@H]21	0.4	11.3
32	COc1ccc2c3c([nH]c2c1)[C@H](CO)N(C(=O)c1ccccn1)CC31CCN(C(=O)C2CCC2)CC1	10.2	24.4
33	NCC[C@@H]1CC[C@@H](NC(=O)NC2CCCCC2)[C@@H](CO)O1	-1.0	-1.1
34	CS(=O)(=O)Nc1ccc2c(c1)[C@H]1C[C@@H](CC(=O)NCc3cccc(F)c3)O[C@H](CO)[C@H]1O2	1.6	-1.1
35	O=C(N[C@@H]1CC[C@H](CC(=O)N2CCCCC2)O[C@@H]1CO)c1ccccn1	2.7	5.0
36	C[C@@H]1CN([C@@H](C)CO)C(=O)Cc2cc(NS(=O)(=O)c3cccs3)ccc2O[C@H]1CN(C)S(C)(=O)=O	7.0	7.1

Reprinted at random: 7 entries already listed.
nr	Structure	Vaccinia inh Venus	Vaccinia inh
28	Cc1noc(C)c1NC(=O)N(C)C[C@H]1Oc2ccc(NC(=O)Nc3ccc4c(c3)OCO4)cc2CC(=O)N([C@@H](C)CO)C[C@H]1C	8.8	11.4
29	O=C(NCc1ccccc1F)[C@@H]1[C@@H](CO)[C@@H]2Cn3c(cccc3=O)[C@@H]2N1CC1CC1	6.2	18.6
35	O=C(N[C@@H]1CC[C@H](CC(=O)N2CCCCC2)O[C@@H]1CO)c1ccccn1	2.7	5.0
26	COc1ccccc1-c1ccc([C@H]2[C@@H](CO)N(C(C)=O)[C@H]2CN(C)C(C)=O)cc1	5.8	-0.6
30	COc1ccccc1CNC(=O)C[C@@H]1C[C@H]2c3cc(NC(=O)C4CCOCC4)ccc3O[C@H]2[C@@H](CO)O1	-7.6	-9.9
33	NCC[C@@H]1CC[C@@H](NC(=O)NC2CCCCC2)[C@@H](CO)O1	-1.0	-1.1
32	COc1ccc2c3c([nH]c2c1)[C@H](CO)N(C(=O)c1ccccn1)CC31CCN(C(=O)C2CCC2)CC1	10.2	24.4

Additional entries follow:
nr	Structure	Vaccinia inh Venus	Vaccinia inh
37	Cc1ccccc1-c1cnc2c(c1)C(=O)N([C@@H](C)CO)C[C@@H](C)[C@@H](CN(C)C(=O)CN(C)C)O2	7.8	0.3
38	C[C@H]1CN([C@@H](C)CO)C(=O)CCCn2cc(nn2)CO[C@@H]1CN(C)C(=O)Nc1cccc2ccccc12	16.6&23.8	7.4&28.4
39	C[C@H]1CN([C@@H](C)CO)S(=O)(=O)c2ccc(C#CC(C)(C)O)cc2O[C@@H]1CN(C)Cc1ccc(-c2ccccc2)cc1	/	?
40	CN1[C@@H]2c3cccc(=O)n3C[C@H]1[C@H](CO)[C@H]2C(=O)NCC1CC1	10.5	7.4
41	Cc1noc(C)c1S(=O)(=O)Nc1ccc2c(c1)C(=O)N([C@H](C)CO)C[C@@H](C)[C@@H](CN(C)C(=O)NC(C)C)OCCCC[C@@H](C)O2	5.4	8.7
42	COCC(=O)N(C)C[C@H]1Oc2cc(C#CCC3CCCC3)ccc2S(=O)(=O)N([C@@H](C)CO)C[C@@H]1C	/	?
43	COc1ccc(C#Cc2ccc([C@@H]3[C@@H](CO)N4C(=O)CN(C(=O)c5ccc(F)cc5)C[C@@H]34)cc2)cc1	2.0	9.6
44	CCCN1[C@@H]2c3ccc(-c4cccnc4)c(=O)n3C[C@H]1[C@H](CO)[C@H]2C(=O)NC1CCC1	13.3	9.7
45	COCC#Cc1ccc2c(c1)O[C@@H](CN(C)C)[C@@H](C)CN([C@@H](C)CO)S2(=O)=O	12.1	13.9
46	COc1ccc(S(=O)(=O)Nc2ccc3c(c2)CC(=O)N([C@H](C)CO)C[C@H](C)[C@@H](CN(C)S(=O)(=O)c2cn(C)cn2)O3)cc1	8.7	14.0
47	CCCNC(=O)Nc1ccc2c(c1)OC[C@@H](C)N(Cc1ccccc1)C[C@H](C)[C@H](OC)CN(C)C2=O	-18.0	-14.7
48	C[C@@H]1CN([C@H](C)CO)C(=O)c2cc(NS(=O)(=O)c3ccccc3)ccc2O[C@@H]1CN(C)S(=O)(=O)c1cn(C)cn1	20.2	14.5
49	C[C@@H]1CN([C@H](C)CO)C(=O)c2cc(-c3cccc(C#N)c3)cnc2O[C@H]1CN(C)Cc1cccnc1	2.7	10.9
50	C[C@@H]1CCCCO[C@@H](CN(C)S(C)(=O)=O)[C@H](C)CN([C@H](C)CO)C(=O)c2cc(NC(=O)Nc3ccc4c(c3)OCO4)ccc2O1	8.5	13.2
51	O=C(C[C@@H]1C[C@@H]2c3cc(NC(=O)NC4CCCC4)ccc3O[C@@H]2[C@H](CO)O1)NCCc1ccccc1	2.8	8.2
52	C[C@@H]1CN([C@@H](C)CO)C(=O)c2cccc(NS(=O)(=O)c3ccc(F)cc3)c2O[C@@H]1CN(C)S(=O)(=O)c1ccc(Cl)cc1	-1.5	-0.6
53	C[C@H](CO)N1C[C@H](C)[C@@H](CN(C)Cc2ccc(C(=O)O)cc2)Oc2ccc(NC(=O)Nc3ccc(C(F)(F)F)cc3)cc2CC1=O	28.3	19.5
54	CCCC#Cc1ccc([C@H]2[C@H](CO)N3C(=O)CN(S(=O)(=O)c4ccccc4C)C[C@@H]23)cc1	4.8	5.1
55	C[C@H]1CN([C@@H](C)CO)C(=O)c2cccc(NS(=O)(=O)c3cccs3)c2O[C@@H]1CN(C)Cc1ccc(Oc2ccccc2)cc1	9.5	10.1
56	CNC[C@H]1Oc2ccc(NC(=O)Nc3ccc(C(F)(F)F)cc3)cc2C(=O)N([C@H](C)CO)C[C@H]1C	10.1	17.8
57	C[C@@H]1CCCCO[C@@H](CN(C)C(=O)NC2CCCCC2)[C@@H](C)CN([C@@H](C)CO)C(=O)c2cc(N(C)C)ccc2O1	5.5	2.0
58	CCC(=O)N1CC2(CN(C(=O)Nc3c(C)noc3C)C2)c2c([nH]c3cc(OC)ccc23)[C@H]1CO	9.8	27.4
59	COc1ccc2c3c(n(C)c2c1)[C@@H](CO)N(C(=O)C1CC1)CC31CCN(C(=O)CN(C)C)CC1	0.4	3.4
60	COc1cccc(NC(=O)N[C@H]2C=C[C@@H](CC(=O)N3CCOCC3)O[C@H]2CO)c1	11.1	5.0
61	COCC(=O)N1CCCCN2[C@H](C1)[C@H](c1ccc(-c3ccc(F)cc3)cc1)[C@@H]2CO	-5.3	-1.6
62	COc1ccc(NC(=O)N(C)C[C@H]2Oc3ccc(NC(=O)Cn4cnnn4)cc3C(=O)N([C@@H](C)CO)C[C@H]2C)cc1	5.9	12.3
63	COc1ccc(NC(=O)Nc2ccc3c(c2)C(=O)N([C@@H](C)CO)C[C@H](C)[C@@H](CN(C)C(=O)NC2CCCCC2)O3)cc1	5.3	22.3
64	C[C@H]1CN([C@@H](C)CO)C(=O)c2cccc(NC(=O)c3ccncc3)c2O[C@H]1CN(C)S(=O)(=O)c1ccc(Cl)cc1	9.4	1.6
65	CCCNC(=O)Nc1ccc2c(c1)OC[C@H](C)N(Cc1ccc(-c3ccccn3)cc1)C[C@H](C)[C@H](OC)CN(C)C2=O	-4.7	-6.2
66	O=C(C1CCC1)N1C[C@@H]2[C@H](c3ccccc31)[C@H](CO)N2C(=O)c1ccccc1F	9.5	9.9
67	C[C@@H]1CN([C@H](C)CO)C(=O)c2cc(NC(=O)CCCN(C)C)ccc2O[C@@H]1CN(C)CC1CCCCC1	7.0	12.7
68	Cc1noc(C)c1NC(=O)Nc1cccc2c1O[C@H](CN(C)Cc1ccc(-c3ccccc3)cc1)[C@H](C)CN([C@@H](C)CO)C2=O	-12.1	-12.2
69	CN1[C@@H]2Cn3c(ccc(-c4ccccc4)c3=O)[C@H]1[C@@H](C(=O)Nc1nccs1)[C@@H]2CO	14.7	13.1
70	O=C(NC[C@H]1CC[C@H]2[C@H](CN2Cc2ccccc2F)O1)C1CCCCC1	21.4	18.8
71	C[C@@H]1CN([C@H](C)CO)C(=O)Cc2cc(NC(=O)C3CCCCC3)ccc2O[C@H]1CN(C)S(=O)(=O)c1ccccc1	-1.5	-2.5
72	C[C@@H]1CCCCO[C@@H](CN(C)C(=O)C2CCCCC2)[C@H](C)CN([C@@H](C)CO)C(=O)c2cc(NS(=O)(=O)c3cn(C)cn3)ccc2O1	-3.7	5.4
73	COc1cccc(S(=O)(=O)N2CCCCN3[C@@H](CO)[C@H](c4ccc(C#CC(C)C)cc4)[C@@H]3C2)c1	/	?
74	COc1ccc(CN2C[C@H](C)[C@@H](OC)CN(C)C(=O)c3ccc(NC(=O)C4CC4)cc3OC[C@@H]2C)cc1	-1.5	-1.9
75	C[C@@H]1CCCCO[C@H](CN(C)S(=O)(=O)c2cn(C)cn2)[C@H](C)CN([C@H](C)CO)C(=O)c2cc(NS(=O)(=O)c3ccc(Cl)cc3)ccc2O1	6.1	6.6
76	CN(C)C(=O)C[C@H]1C[C@@H]2c3cc(NC(=O)C4CCC4)ccc3O[C@@H]2[C@@H](CO)O1	4.7	10.4
